Screening results deposited in PubChem by National Center for Advancing Translational Sciences (NCATS).
NS1 function inh – inhibitors of influenza NS1 protein function. S. cerevisiae slowed by influenza A NS1, growth recovery by OD600. Potency, µM (doses to about 46.1 µM), inactives show top-dose activity, positive = more growth. hit rate 0.4% among 270,000; active means well fitted rising curve with a large enough effect; inconclusive means small, poorly fitted or top-dose-only effect; inactive means no such curve, though single readings can be large or run the other way; further: nearly all actives have a fitted effect of over 50% in size
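S. cerevisiae expressing influenza A NS1, grown in glucose, washed, then diluted 1:100 into pH 6.0 -URA galactose medium with 23 nl compound. Growth recovery read as OD600; NS1-free strain serves as control.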
SARS PLP yeast – blocks SARS-CoV papain-like protease in a yeast assay | S. cerevisiae expressing SARS-CoV PLpro, growth rescue; control for the full effect not named in the record | Potency, µM (highest dose often 32.9 µM), for the others: top-dose activity, positive = growth rescue | hit rate 0.19% among 330,000 | AID 485353; active means well fitted rising curve with a large enough effect; inconclusive means small, poorly fitted or top-dose-only effect; inactive means no such curve, though single readings can be large or run the other way; further: 0% is about no effect; nearly all actives have a fitted effect of over 55% in size; growth read by luminescence after 48 h
2A StopGo – FMDV 2A StopGo reporter, luciferase signal. human cells with a luciferase reporter of 2A StopGo recoding; control for the full effect not named in the record. hit rate 1.2% among 410,000. Potency, µM (top dose mostly 57.9 µM), without a hit: at the top dose signal change, negative = less light. AID 1159524; active = well fitted falling curve with a large enough effect; inconclusive = small, poorly fitted or top-dose-only effect; inactive = no such curve, though single readings can be large or run the other way; tested in HEK293T cells; further: on the % scale 0 is the no-effect control and ±100 the full control effect; nearly all actives have a fitted effect of over 45% in size; luciferase light after 4 h
LASV entry inh – Lassa virus entry inhibition. Lassa virus pseudotype entry inhibition, cell reporter; control for the full effect not named in the record. hit rate 1.2% among 300,000. AID 540256. Potency, µM (top dose mostly 37.9 µM), inactives show top-dose activity change, negative = inhibition, actives largely listed as inhibitors; active means well fitted inhibition curve with a large enough effect; inconclusive means small, poorly fitted or top-dose-only effect, or effect the other way; inactive means flat fitted curve, though single readings scatter; tested in HEK293 cells; further: on the % scale 0 is the no-effect control and ±100 the full control effect; nearly all actives have a fitted effect of over 50% in size; luciferase read-out
Cruzain inh noDet – blocks cruzain activity in detergent-free assay. Potency, µM, without a hit: max response, negative = inhibition, most hits filed as inhibitors. hit rate 2.3% among 200,000. purified cruzain, Z-FR-AMC fluorescence, no detergent. P25779;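 further: plate controls were enzyme without inhibitor for no effect and buffer without enzyme for full effect; nearly all actives have a fitted effect of over 40% in size; top concentration of the series not given in the record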
Target sequence (P25779 123-467 limits assumed): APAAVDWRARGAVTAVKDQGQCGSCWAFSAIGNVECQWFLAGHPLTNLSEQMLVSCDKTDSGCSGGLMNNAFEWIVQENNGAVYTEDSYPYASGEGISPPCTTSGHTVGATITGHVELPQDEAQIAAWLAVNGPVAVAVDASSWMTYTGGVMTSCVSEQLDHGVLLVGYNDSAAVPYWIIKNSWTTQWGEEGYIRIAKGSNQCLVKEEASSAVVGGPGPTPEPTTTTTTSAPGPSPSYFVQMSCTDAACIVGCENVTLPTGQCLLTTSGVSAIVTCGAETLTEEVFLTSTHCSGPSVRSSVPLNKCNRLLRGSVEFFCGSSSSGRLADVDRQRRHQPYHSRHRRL
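Detergent-free condition (0.00005% Triton X-100) in acetate buffer pH 5.5 with DTT. 1.5 nM enzyme and compound were pre-mixed 15 min, then 2 uM Z-FR-AMC substrate added; reaction progress from fluorescence change between first and third reads (60 s).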
Cruzain Triton – cruzain (T. cruzi) inhibition with detergent; purified cruzain, Z-FR-AMC fluorescence, 0.01% Triton; Potency, µM, for inactives: max response, negative = inhibition, usual class: inhibitors; P25779; AID 1478; hit rate 0.43% among 200,000;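 further: plate controls were neutral wells for no effect and buffer without enzyme for full effect; nearly all actives have a fitted effect of over 40% in size; top concentration of the series not given in the record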
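Detergent-containing arm of a paired screen for aggregation-based inhibition: 0.01% Triton X-100 present. Cruzain at 1.5 nM cleaved 2 uM Z-FR-AMC at pH 5.5 with 5 mM DTT; AMC fluorescence gain over 60 s measured activity.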
RE007 growth inh – less growth of the S. pombe RE007 Vpr strain. hit rate 0.21% among 360,000. Potency, µM (top dose mostly 92.2 µM), without a hit: at the top dose activity change, negative = less growth. AID 651644. S. pombe RE007 Vpr strain, BacTiter-Glo ATP luminescence, 24 h; control for the full effect not named in the record; active = well fitted falling curve with a large enough effect; inconclusive = small, poorly fitted or top-dose-only effect; inactive = no such curve, though single readings can be large or run the other way;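 further: on the % scale 0 is the no-effect control and ±100 the full control effect; nearly all actives have a fitted effect of over 50% in size; the assay follows cell death caused by Vpr and the record does not say whether a fall means rescue or toxicity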
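Fission yeast strain RE007, carrying one chromosomally integrated HIV-1 vpr copy, was seeded at OD 0.01 in PMG+AL medium with 23 nL pinned compound. After 24 h at 30 °C and 99% humidity, viability was read by BacTiter-Glo luminescence.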
Marburg entry inh – inhibitors of Marburg virus binding or cell entry. hit rate 1.8% among 300,000. Marburg virus pseudotyped entry inhibition, cell reporter; control for the full effect not named in the record; about a third of the inactives were read at about 46 µM. Potency, µM (series often up to 37.8 µM), for the others: at the highest dose activity change, negative = inhibition, usual class: inhibitors; active = well fitted inhibition curve with a large enough effect; inconclusive = small, poorly fitted or top-dose-only effect, or effect the other way; inactive = flat fitted curve, though single readings scatter; tested in HEK293 cells; about a fifth of its hits are not listed in these tables; further: on the % scale 0 is the no-effect control and ±100 the full control effect; luciferase read-out
* hit, by the source's call; ? = inconclusive; / = no result given; & = joins results of further samples; [ ] = remark or other dose. Unless noted, the call rests on the fitted dose curve; in most records, active means well fitted curve in the direction sought with a large enough effect; inconclusive means small, poorly fitted or top-dose-only effect, or another doubt; inactive means no such curve, though single readings can be large; an effect the other way counts as inactive or inconclusive. Potency means the concentration at half of the fitted maximal effect.

SMILES	NS1 function inh	SARS PLP yeast	2A StopGo	LASV entry inh	Cruzain inh noDet	Cruzain Triton	RE007 growth inh	Marburg entry inh
COc1cccc(C(=O)COc2ccccc2-c2ccccc2)c1	-17%	-18%	-4%	18%	3%	-4.7%	4%	-5%
CCCN1CCN(C(=O)C(C)n2nc(C)c3sc4ccccc4c3c2=O)CC1 (stereo not drawn)	0%	15%	2%	7%[46.1 µM]	/	/	-1%	-4%[46.1 µM]
COc1ccc(OCc2cc(C(=O)N3CCSCC3)no2)c(Cl)c1	-18%	-6%	18%	-16%	/	/	9%	8%
CCOc1ccc(N(C(=O)c2snc(C(N)=O)c2N)C(CC)C(=O)NC2CCCC2)cc1 (stereo not drawn)	-12%	-1%	25%	-15%[46.1 µM]	/	/	-3%	?
CC(C)[C@@H]1COC(c2cccc(C3=N[C@H](C(C)C)CO3)n2)=N1	9%	3%	32%[activator]	/	/	/	-10%	/
COc1ccccc1Cn1c(C)nnc1-c1cnn(C)c1N	-2%	-2%	-7%	2%	/	/	1%	-6%
O=C(Nc1ccccc1C(=O)O)c1ccc(NC(=O)C2CCCO2)cc1 (stereo not drawn)	13%	-7%	-16%	-3%	/	/	-11%	?
CCCC(=O)NC(c1ccc(OC)cc1)c1c(O)ccc2ccccc12 (stereo not drawn)	-25%	3%	-10%	?	/	/	-6%	?
CCC1C(=O)c2ccccc2N(C)C1=O (stereo not drawn)	1%	-30%	0%	2%	5%	-1.3%	-3%	-9%
O=C1N/C(=C/c2cccn2-c2ccc(F)cc2)C(=O)N1Cc1ccccc1F	19%	?	-12%	?	?	-11%	10%	1%
CC(=O)NC1(C(F)(F)F)NC(=O)N(c2ccc(F)cc2)C1=O (stereo not drawn)	0%	0%	-24%	4%[46.1 µM]	/	/	0%	?
COc1cc2c(cc1NC(=O)CCCN1C(=O)CCC1=O)oc1ccccc12	-7%	0%	29%	14%	?	-2.8%	0%	8%
CCC(C)NC(=O)CC(NS(=O)(=O)c1ccc(Cl)cc1)c1ccco1 (stereo not drawn)	1%	-2%	8%	4%	3%	2.9%	-10%	10%
Nc1ccc(S(=O)(=O)N2CCCC2)cc1Cl	0%	-1%	0%	-1%[46.1 µM]	/	/	-8%	2%[46.1 µM]
COc1ccc(OC)c(/C=N/NC(=O)c2nnn(-c3nonc3N)c2-c2cccs2)c1	5%	5%	?	/	/	/	-2%	/
COc1ccc(CC2(CCc3ccncc3)C(=O)NC(=O)NC2=O)c(OC)c1	0%	1%	-5%	8%[46.1 µM]	/	/	-28%	13%[46.1 µM]
Cc1cnc(NC(=O)Cc2ccc(Br)cc2)s1	-15%	?	4%	-1%[46.1 µM]	/	/	5%	1%[46.1 µM]
NC(=O)CC(NC(=O)Cc1ccc(Cl)cc1)c1ccc(NCc2ccccc2)c([N+](=O)[O-])c1 (stereo not drawn)	0%	-2%	-26%	/	/	/	?	/
CNC(=O)COC(=O)c1ccccc1Oc1ccccc1	-7%	-1%	24%	-10%	3%	3.1%	17%	6%
O=C(CSc1nnc(-c2cccnc2)n1Cc1ccccc1)NCc1ccccc1	7%	9%	7%	-20%	10%	-1.9%	12%	3%
O=C(CSc1c2c(nc3ccccc13)CCCC2)NCc1ccco1	/	-4%	-21%	22%	/	/	-8%	9%
O=C(O)CS(=O)CC(=O)NCc1cccc(C(F)(F)F)c1 (stereo not drawn)	6%	0%	-3%	-9%[46.1 µM]	/	/	11%	13%[46.1 µM]
Cc1oc(-c2ccc3c(c2)OCCO3)cc1C(=O)NCC(=O)O	1%	-2%	28µM*	?	/	/	0%	?
COCCc1nnc(NC(=O)Cc2ccccc2)s1	?	-8%	-20%	8%	-2%	-0.5%	0%	1%
CCSc1nnc(Cn2c(=O)sc3ccccc32)n1-c1ccc(OC)cc1	-1%	12%	2%	/	12%	-2.7%	-6%	/
COc1cccc(-c2nc(CS(=O)CC(=O)NCCc3ccccc3)c(C)o2)c1 (stereo not drawn)	1%	0%	19%	/	/	/	1%	/
COc1ccc(C(=O)NCCOC(C)C)cc1OC1CCN(C(C)=O)CC1	-4%	-1%	-7%	/	/	/	-14%	/
Cc1cc(C)c(C#N)c(SCCN2CCCCC2)n1	1%	0%	-15%	?	/	/	-10%	?
COc1ccc(Cc2nc3ccc(C(=O)N4CCC(N(C)C)C4)cc3o2)cc1 (stereo not drawn)	3%	1%	8%	5%	/	/	-15%	20%
COC(=O)CSc1nnc(-c2cccnc2)n1C	0%	-9%	-10%	3%	/	/	4%	?
CCN(C(=O)c1cc2cc(Br)cc(OC)c2oc1=O)c1ccccc1	/	/	-19%	-8%[46.1 µM]	-10%	0.5%	/	3%[46.1 µM]
COc1ccc(N(CC(=O)NC(C)c2ccccc2)S(=O)(=O)c2c(C)nn(C)c2C)cc1 (stereo not drawn)	/	/	-8%	21%[46.1 µM]	?	-3.0%	/	?
O=C(CN1C(=O)NC2(CCCC2)C1=O)N1CCN(S(=O)(=O)c2ccccc2F)CC1	3%	0%	-15%	-14%	/	/	17%	?
O=C(NC1CCCCC1)c1ccc2c(c1)N(Cc1ccccc1F)C(=O)c1ccccc1S2	/	/	-10%	-3%[46.1 µM]	?	-2.3%	/	/
CN(C)c1ccc(C(=O)NCc2ccc3c(c2)CCO3)cc1	-2%	0%	16%	-10%	/	/	-6%	0%[14.2 µM]
CN(C)N1C(N)=C(C#N)C(c2ccc3c(c2)OCO3)C2=C1CCCC2=O (stereo not drawn)	2%	3%	-8%	-23%[46.1 µM]	/	/	-17%	?
O/N=C/c1cccc[n+]1CCCCCC[n+]1ccccc1/C=N/O	10%	-3%	-9%	?	/	/	6%	3%
CCc1cccc(NC(=O)Cn2c(=O)c3cccn3c3ccccc32)c1	7%	0%	-12%	/	/	/	-8%	/
Nn1c(SCc2cccc(F)c2)nnc1-c1ccncc1	13%	3%	13%	/	/	/	-8%	/
COC(=O)[C@H](CCSC)NC(=O)NCc1ccccc1F	12%	-4%	-14%	4%	0%	0.2%	11%	-4%
O=C(Nc1nc2ccccc2[nH]1)C1CCN(S(=O)(=O)c2cccs2)CC1	10%	8%	-20%	7%	-4%	-2.5%	33%	12%
CCN(CC)c1ccc(S(=O)(=O)N2CCOCC2)cc1NC(=O)COC(=O)COc1ccccc1C	12%	?	-10%	?	/	/	-11%	4%
Cc1cc(C)c(NC(=O)C2CCCN2CCC(C)C)c(C)c1 (stereo not drawn)	11%	9%	0%	14%	-3%	-0.2%	-8%	-29%
Cc1ccc(NC(=O)c2cc(Cl)ccc2[N+](=O)[O-])cc1C	-7%	0%	0%	-2%	3%	-3.6%	-20%	0%
C=CCc1ccccc1OCCSc1nc(-c2ccc(C(C)(C)C)cc2)nc2cc(=O)[nH]n12	/	/	0%	?	4µM*	-3.2%	/	/
COc1ccc(C(CC(=O)c2ccccc2)S(=O)(=O)c2ccc(C)cc2)cc1 (stereo not drawn)	-27%	0%	79%	-3%	4%	-6.5%	-19%	1%
COc1ccc(CN2CCN(CCC(C)C)C(CCO)C2)cc1Cn1cccn1 (stereo not drawn)	-1%	0%	-20%	/	/	/	-2%	/
CN1CCN(C(=O)c2cc3cc(F)ccc3[nH]2)CC1	0%	0%	21%	/	/	/	-11%	/
COc1ccc(C)cc1Nc1nnc(C)c(=O)[nH]1	5%	6%	-1%	24%[46.1 µM]	/	/	7%	6%[46.1 µM]
Cc1cn(COC/C=C/c2ccccc2)c(=O)[nH]c1=O	-9%	5%	/	?	0%	2.5%	-17%	-8%

New compounds follow.
SMILES	NS1 function inh	SARS PLP yeast	2A StopGo	LASV entry inh	Cruzain inh noDet	Cruzain Triton	RE007 growth inh	Marburg entry inh
O=c1c2c(n3cnnc3n1C1CCCCC1)-c1ccccc1CC21CCCCC1	6%	22%	6%	-4%	8%	-9.2%	4%	2%
CCN(CC)S(=O)(=O)c1ccc(-c2nnc(SCC(=O)N3c4ccccc4CC3C)o2)cc1 (stereo not drawn)	-18%	0%	0%	?	?	1.4%	0%	-14%
CC(=O)c1ccc2c(c1)C1C(Cl)C(Sc3ccccc3[N+](=O)[O-])CC1C(c1ccccc1)N2 (stereo not drawn)	-10%	0%	-21%	-18%	4µM*	-6.1%	-13%	-17%&-17%
COc1ccc2cc(C(C)C(=O)NC3CCC(O)CC3)ccc2c1 (stereo not drawn)	2%	1%	-7%	?	/	/	3%	?
COC(=O)c1ccc(NCc2cc(O)ccc2O)cc1	/	/	?	?	/	/	-13%	?

Compounds listed so far that contain an aryl thioether with sulfur outside any ring (nine):
SMILES	NS1 function inh	SARS PLP yeast	2A StopGo	LASV entry inh	Cruzain inh noDet	Cruzain Triton	RE007 growth inh	Marburg entry inh
O=C(CSc1nnc(-c2cccnc2)n1Cc1ccccc1)NCc1ccccc1	7%	9%	7%	-20%	10%	-1.9%	12%	3%
O=C(CSc1c2c(nc3ccccc13)CCCC2)NCc1ccco1	/	-4%	-21%	22%	/	/	-8%	9%
CCSc1nnc(Cn2c(=O)sc3ccccc32)n1-c1ccc(OC)cc1	-1%	12%	2%	/	12%	-2.7%	-6%	/
Cc1cc(C)c(C#N)c(SCCN2CCCCC2)n1	1%	0%	-15%	?	/	/	-10%	?
COC(=O)CSc1nnc(-c2cccnc2)n1C	0%	-9%	-10%	3%	/	/	4%	?
Nn1c(SCc2cccc(F)c2)nnc1-c1ccncc1	13%	3%	13%	/	/	/	-8%	/
C=CCc1ccccc1OCCSc1nc(-c2ccc(C(C)(C)C)cc2)nc2cc(=O)[nH]n12	/	/	0%	?	4µM*	-3.2%	/	/
CCN(CC)S(=O)(=O)c1ccc(-c2nnc(SCC(=O)N3c4ccccc4CC3C)o2)cc1 (stereo not drawn)	-18%	0%	0%	?	?	1.4%	0%	-14%
CC(=O)c1ccc2c(c1)C1C(Cl)C(Sc3ccccc3[N+](=O)[O-])CC1C(c1ccccc1)N2 (stereo not drawn)	-10%	0%	-21%	-18%	4µM*	-6.1%	-13%	-17%&-17%
